Mtb bLac sens – beta-lactam sensitization of Mtb H37Rv | M. tuberculosis H37Rv growth with meropenem, percent inhibition; hits of this screen are not shown here | inhibition, % at 25 µM | 330,000 tested, 0.27% active | AID 434955;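 active means about 74% or more and at least 40 points above the plate without the antibiotic, then above 30% in a dose series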;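 further: growth measured after seven days incubation then overnight dye step; 0% = bacteria only wells and 100% = bacteria with antibiotic; twin plates without the antibiotic show which effects depend on it; some results filed as inactive read as strong as hits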
* hit, by the source's call. These rows are one share of the data; rates above refer to the full screens.

structure	Mtb bLac sens
O=C(c1ccco1)N1CCN(S(=O)(=O)c2c(Cl)cccc2Cl)CC1	0
CC1CCCC(NC(=O)COC(=O)[C@@H](NC(=O)c2ccccc2Cl)C(C)C)C1C (stereo not given in full)	-2
O=C(CN1CCN(C(=O)CN2C(=O)NC3(CCCC3)C2=O)CC1)Nc1cccc(F)c1	-2
O=C(NCc1ccco1)c1cc(S(=O)(=O)NC2CC2)ccc1Br	1
O=C(COC(=O)C1CC1)Nc1ccc([N+](=O)[O-])cc1C(F)(F)F	13
Cc1c(Cl)cccc1NC(=O)COC(=O)Cn1cnc2c1c(=O)n(C)c(=O)n2C	-1
COc1ccc(-c2c(-c3cc(OC)cc(OC)c3)n(C)c3ccc(-c4ccn[nH]4)cc23)cc1	97
CC(CC(C#N)(c1ccccc1)c1ccccc1)N(C)C (stereo not given)	-5
Cc1ccc(NC(=O)CN(C)C(=O)CCSc2ccc(F)cc2)cc1	-5
Cc1noc(NS(=O)(=O)c2ccc(NC(=O)c3ccccc3NS(=O)(=O)c3ccc(F)cc3)cc2)c1C	5
O=C(CSc1nccc(=O)[nH]1)Nc1ccc2ccccc2c1	0
CC(=O)Nc1ccc(S(=O)(=O)N(C)CC(=O)Nc2ccc(F)c(F)c2F)cc1	-5
Cc1cc(-c2ccccc2)c2c(=O)n(-c3ccccc3)[nH]c2n1	-4
CNC(=O)c1ccc(NC(=O)c2cc(S(=O)(=O)N3CCOCC3)ccc2N2CCCC2)cc1	-6
c1csc(CNc2ncnc3ccc(-c4ccoc4)cc23)c1	46

As a working copy, seven of the compounds above.
structure	Mtb bLac sens
Cc1ccc(NC(=O)CN(C)C(=O)CCSc2ccc(F)cc2)cc1	-5
Cc1noc(NS(=O)(=O)c2ccc(NC(=O)c3ccccc3NS(=O)(=O)c3ccc(F)cc3)cc2)c1C	5
O=C(CSc1nccc(=O)[nH]1)Nc1ccc2ccccc2c1	0
CC(=O)Nc1ccc(S(=O)(=O)N(C)CC(=O)Nc2ccc(F)c(F)c2F)cc1	-5
Cc1cc(-c2ccccc2)c2c(=O)n(-c3ccccc3)[nH]c2n1	-4
CNC(=O)c1ccc(NC(=O)c2cc(S(=O)(=O)N3CCOCC3)ccc2N2CCCC2)cc1	-6
c1csc(CNc2ncnc3ccc(-c4ccoc4)cc23)c1	46

Later entries:
structure	Mtb bLac sens
COc1ccc(C(=O)NCCN2CCN(C(=O)c3ccc(OC)c(OC)c3)CC2)cc1OC	-4
O=C(C[C@H]1C/C=C\CC[C@@H](Cc2ccc(F)cc2)C(=O)OC[C@H]2CCCN2C1=O)N[C@@H](CO)Cc1ccccc1	-6
CC(C)OS(C)(=O)=O	-2
CCCCCCSc1ccc([C@@H]2[C@@H]3C(=O)N(C)C(=O)[C@@H]3[C@]3(C(=O)OC)CCCCN23)cc1	-2
CC(NC(=O)COC(=O)c1ccc(OCC2CCCO2)cc1)c1ccccc1Cl (stereo not given)	6
CCN(C[C@H]1N[C@@](Cc2ccccc2)(C(=O)OC)[C@H]2C(=O)N(C)C(=O)[C@@H]12)C(C)=O	-5
COc1cc(Cl)c(S(=O)(=O)NCCCn2ccnc2)cc1Cl	-2
N#Cc1ccc(-c2ccc(OCC(=O)NN=Cc3ccncc3)cc2)cc1	64
O=C(Nc1ccc(Br)cn1)c1ccc(COc2c(F)c(F)cc(F)c2F)o1	-2
CCc1ccc2nc(NC(=O)C3CCN(c4ncnc5sc(C)c(C)c45)CC3)sc2c1	37
O=C(COc1ccc(Br)cc1F)NC1CC1	-8
O=C(COC(=O)CSc1ccccc1)Nc1ccc(F)cc1F	5
Oc1ccc(Cl)cc1CNCc1ccc(F)c(F)c1	-3
COc1cc(/C=C2\Oc3ccc(C#Cc4ccc(O)cc4)cc3C2=O)cc(OC)c1	7
CN(CC(=O)Nc1ccc(F)c(F)c1F)C(=O)C1CCCCC1	-8
Cc1cccc(NC(=O)c2nc[nH]c2C(=O)NCc2ccccc2)c1	99
CCc1ccc2c(CN3CCN(S(=O)(=O)c4ccccc4F)CC3)cc(=O)oc2c1	0
COc1ccc(C#Cc2c(C=O)n(C)c3ccccc23)cc1	63
O=C(N/N=C/c1c(F)cccc1Cl)C(=O)N1CCCCCC1	-3
CCOc1ccccc1N1CCN(C(=O)c2cc(S(=O)(=O)N(C)C)ccc2N2CCCC2)CC1	2
Cn1c(N)c(C(=O)COC(=O)c2cc(S(=O)(=O)N3CCOCC3)ccc2F)c(=O)n(C)c1=O	-1
O=C(NCCCN1CCCC1=O)C1CCN(S(=O)(=O)c2cc(C(F)(F)F)ccc2Cl)CC1	0
COCCn1c(SCC(=O)NNC(=O)c2cc(Cl)ccc2OC)nnc1-c1ccncc1	-6
COc1cc(/C=C/C(=O)O)ccc1OS(=O)(=O)c1c(C)cc(C)cc1C	5
COc1ccc(OC)c(CN2CCN(C(=O)[C@@H](NC(=O)c3cccc(C)c3)C(C)C)CC2)c1	-5
Cc1ccc2c(CC(=O)NCC3(N4CCOCC4)CCCCC3)coc2c1C	0
O=C(CNC(=O)c1cc(Cl)cc([N+](=O)[O-])c1)NC1CC1	-9
O=C(CSc1ccccc1F)Nc1ccc(N2CCOCC2)cc1	4
COc1ccc(NC(=O)CSc2ccc3c(c2)OCCO3)cc1S(N)(=O)=O	-3
COc1ccc(CCC(=O)N2CCN(S(=O)(=O)c3ccc(OC)cc3)CC2)cc1	9
COCCCNC(=O)c1cc(S(=O)(=O)NCCCN2CCCC2=O)ccc1Cl	-4
O=S(=O)(Nc1ccc(F)cc1)c1ccc(S(=O)(=O)N2CCOCC2)cc1	-5
Cc1ccc(NC(=O)CCNC(=O)c2ccc([N+](=O)[O-])cc2)cc1S(=O)(=O)N1CCOCC1	-2
Cc1cccc(OCCNS(=O)(=O)c2ccc(Cl)cc2)c1	0
COc1ccc(OC)c(NC(=O)COC(=O)/C=C/c2ccco2)c1	21
CC(NC(=O)c1cccc(S(=O)(=O)N2CCc3ccccc3C2)c1)c1ccco1 (stereo not given)	-7
Cc1ccc(S(C)(=O)=O)cc1C(=O)Nc1cccc(S(=O)(=O)N2CCCCCC2)c1	-2
Cc1ccc(NC(=O)CN2c3cccc4cccc(c34)S2(=O)=O)cc1	-10
COc1cccc(NC(=O)CN(C)C(=O)c2cc(-c3ccccc3)nn2-c2ccccc2)c1	3
c1cncc(-c2ccc3[nH]ccc3c2)c1	0
Cc1ccc(S(=O)(=O)NCC(=O)OCC(=O)NCc2ccco2)cc1	-2
CCOc1ncccc1C(=O)Nc1ccc(S(=O)(=O)Nc2cc(C)nc(C)n2)cc1	-1
C=CCn1c(=S)[nH]c2cc(C(=O)Nc3ccc(F)cc3)ccc2c1=O	-3
Clc1ccc(-c2ccccc2)cn1	7
Nn1c(SCC(=O)NCc2ccc3c(c2)OCO3)nnc1C(F)(F)F	2
COc1ccc(NC(=O)Nc2cccc3c2O[C@@H](CN(C)CC2CCCCC2)[C@@H](C)CN([C@H](C)CO)C3=O)cc1	0
COc1ccc(NC(=O)CSc2nnnn2C)cc1S(=O)(=O)N1CCCCC1	-2
CCOC(=O)C(C)(C)Oc1ccc(Cl)cc1	-7
COc1ccc(F)cc1-c1nc(N)nc(N)n1	-2
COCc1ccc(C(=O)N2CCCC(N3CCN(c4ccc(F)cc4)CC3)C2)o1 (stereo not given)	-16
CCOC(=O)C1=CN2CCC[C@H]2CC1=O	-6
CCC(C(=O)Oc1c(C(C)C)cccc1C(C)C)c1ccccc1 (stereo not given)	-8
O=C(N/N=C/c1ccc2c(c1)OCO2)c1cccc(NC(=O)c2ccccc2Cl)c1	0
CCN(C(=O)CSc1n[nH]c(-c2ccccc2)n1)c1c(N)n(Cc2ccccc2)c(=O)[nH]c1=O	-7
CCOc1ccccc1N1C(=O)c2ccc(S(=O)(=O)c3ccc(C(=O)O)cc3)cc2C1=O	-4
CCc1ccc(N2CC(C(=O)OCC(=O)NC3CC3)CC2=O)cc1 (stereo not given)	-3
COc1ccccc1NS(=O)(=O)c1cccc(C(=O)N2CCN(C(=O)c3ccco3)CC2)c1	-5
CCN1C(=O)C(=O)N(CC(=O)N2CCC(C)Sc3ccccc32)C1=O (stereo not given)	7
Cc1ccc(NC(=O)NC(=O)CN2CCCC2c2ccc3c(c2)OCCO3)cc1C (stereo not given)	-4
COC(=O)C1=C(c2ccc(-c3ccccc3)c(F)c2)C[C@@H]2CC[C@H]1N2C(=O)NCCO	9

Further results:
structure	Mtb bLac sens
C=CCn1c(SCC(=O)Nc2ccc(C(=O)O)cc2)nc2scc(-c3ccccc3)c2c1=O	-5
CC(C)CN(C(=O)CCNC(=O)c1ccc(Cl)cc1)C1CCS(=O)(=O)C1 (stereo not given)	-1
CC(C)Nc1nnc(SCC(=O)Nc2sccc2C#N)s1	-7
CCN1C(=O)[C@@H]2[C@@H](c3ccc(-c4ccc5c(c4)OCO5)c(OC)c3)N3CCC[C@@]3(C(=O)OC)[C@@H]2C1=O	-10
CC(=O)C(Cc1ccccc1)NC(=O)CN1c2cccc3cccc(c23)S1(=O)=O (stereo not given)	-6
CCOc1ccc(S(=O)(=O)NCCC(=O)N(C)Cc2cccs2)cc1	-4
CCN1C(=NCCc2ccc(Br)cc2)N[C@@H](c2ccccc2)[C@H](C(=O)OC)[C@H]1C	94
COc1ccc(S(=O)(=O)Nc2cccc3c2O[C@H](CN(C)S(=O)(=O)c2ccc(F)cc2)[C@H](C)CN([C@H](C)CO)C3=O)cc1	-13
C[C@@H]1O[C@@H](O[C@H]2[C@H](O)[C@@H](O)[C@H](Oc3c(-c4ccc(O)cc4)oc4cc(O)cc(O)c4c3=O)O[C@@H]2CO)[C@H](O)[C@H](O)[C@H]1O	3
O=C(O)c1ccc(Cl)c(S(=O)(=O)Nc2ccc(S(=O)(=O)N3CCCC3)cc2)c1	-6
COc1ccc(C(=O)OCC(=O)NC(=O)NCc2ccccc2)cc1[N+](=O)[O-]	8
C[C@H](CO)N1C[C@H](C)[C@@H](CN(C)S(=O)(=O)c2ccccc2)Oc2ccc(NS(=O)(=O)c3ccc(F)cc3)cc2C1=O	4
Cc1cccc(C(=O)NCC(=O)N2CCC2)c1	-6
C#CCOCCOCCOCCNc1nc(N2CCOCC2)nc(N2CCN(C(=O)[C@H](CCC(=O)O)n3cc([C@@H](N)CCCCN)nn3)CC2)n1	-4
COc1ccc2ccc(C(C)(C(C)=O)C(=O)OC(C)C)cc2c1 (stereo not given)	-1
COc1ccc(C(=O)OCC(=O)NC2CCCCCCC2)cc1OC	-5
Fc1ccc(CN2CC[C@H]3C=CCc4cccc(c43)C2)cc1	2
CC1(C)C[C@H](O)[C@]2(CO)[C@H](O)C[C@]3(C)C(=CCC4[C@@]5(C)CC[C@H](O)C(C)(C)C5CC[C@]43C)[C@@H]2C1 (stereo not given in full)	-3
COc1cc2cc(CCCOC(=O)c3ccc(Br)cc3)oc(=O)c2cc1OC	5
COC(=O)c1ccccc1S(=O)(=O)NNC(=O)C12CC3CC(CC(C3)C1)C2	3
COc1cccc(N2CCN(CC(=O)Nc3ccnn3C3CCCC3)CC2)c1	-5
COC(=O)C1=C(C)NC(C)=C(C(=O)OCC2CCCO2)C1c1cccc(Cl)c1 (stereo not given)	3
N#CCCN(C(=O)COC(=O)C12CC3CC(CC(O)(C3)C1)C2)c1ccc(F)cc1	8
CC(C)Cn1cc(C(=O)NCCCN2CCC(C)CC2)c2c3ccccc3n(C)c2c1=O	-3
COc1cc(C(=O)Nc2cc(C)ccc2C)ccc1OCc1c(C)noc1C	-6
O=C(NCc1ccco1)/C(=C/c1cccc([N+](=O)[O-])c1)NC(=O)c1ccco1	-18
COCCn1c(=O)[nH]c2cc(C(=O)N3CCN(c4cccc(C)c4C)CC3)ccc2c1=O	7
CCOC(=O)c1c(C)[nH]c(C)c1C(=O)CN1C(=O)NC2(CCCCCC2)C1=O	-8
COC(=O)C1=C(c2ccc(Cl)c(C(F)(F)F)c2)C[C@@H]2CC[C@H]1N2C(=O)N1CCOCC1	5
CCN(CC)C(=O)c1ncn(C)c1C(=O)N(CC)CC	-9
COc1ccccc1C(=O)NC(CCSC)C(=O)OCC(=O)N1CCCC1=O (stereo not given)	-1
CC1CCN(CC[C@H]2CCCN2S(=O)(=O)c2cccc(O)c2)CC1	-6
O=S(=O)(c1ccc(SCCOc2ccc(Br)cc2)nc1)N1CCCC1	-5
C=CCn1c(COc2ccc(F)cc2)nnc1SC(C)C(=O)NCC1CCCO1 (stereo not given)	-2
Cc1ccc(S(=O)(=O)Nc2ccc3c(c2)CC(=O)N([C@H](C)CO)C[C@@H](C)[C@H](CN(C)Cc2ccc(-c4ccccc4)cc2)O3)cc1	82
O=C1N[C@@H](Cc2c[nH]c3ccccc23)COC(=O)[C@H](Cc2ccc(F)cc2)C/C=C\C[C@H]1CC(=O)N(CCO)Cc1ccccc1	22
C=CC[C@H](CC(=O)N(CCO)Cc1ccccc1)C(=O)NC[C@H](OC(=O)[C@@H](CC=C)CC(=O)OC(C)(C)C)c1ccccc1	2
Cc1ccc(S(=O)(=O)N2[C@@H](c3ccc(Cl)cc3)C(C(=O)O)=CC[C@H]2c2cccc(C)c2)cc1	-19
Cc1c(NC(=O)COC(=O)/C=C/c2ccccc2Br)c(=O)n(-c2ccccc2)n1C	-2
Cc1oc(-c2ccccc2)nc1C(=O)OCC(=O)NC(C)c1ccccc1 (stereo not given)	3

Assay outcomes deposited in PubChem by Southern Research Specialized Biocontainment Screening Center.
